# KCNQ2 enhance: potentiators of rat KCNQ2 potassium channel. AID 2239, 2010. 310,000 tested, 0.54% active. Potassium voltage-gated channel subfamily KQT member 2 (Rattus norvegicus), O88943. B-score at 10 µM. CHO-K1 KCNQ2, FluxOR thallium flux fluorescence; stronger effect = higher value;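 active = fluorescence ratio B-score at least 3 SD of library B-scores, with initial fluorescence B-score within 3 SD, cut at about 5.3 in these data; same plate scores as AID 2156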;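 also: B-score of peak minus minimum over baseline fluorescence ratio after K+ and Tl+ stimulus; positive B-score means potentiation of KCNQ2 with more thallium influx and brighter signal; only the inactives scoring about 0 or higher are listed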
# Target sequence (O88943 whole entry, looked up): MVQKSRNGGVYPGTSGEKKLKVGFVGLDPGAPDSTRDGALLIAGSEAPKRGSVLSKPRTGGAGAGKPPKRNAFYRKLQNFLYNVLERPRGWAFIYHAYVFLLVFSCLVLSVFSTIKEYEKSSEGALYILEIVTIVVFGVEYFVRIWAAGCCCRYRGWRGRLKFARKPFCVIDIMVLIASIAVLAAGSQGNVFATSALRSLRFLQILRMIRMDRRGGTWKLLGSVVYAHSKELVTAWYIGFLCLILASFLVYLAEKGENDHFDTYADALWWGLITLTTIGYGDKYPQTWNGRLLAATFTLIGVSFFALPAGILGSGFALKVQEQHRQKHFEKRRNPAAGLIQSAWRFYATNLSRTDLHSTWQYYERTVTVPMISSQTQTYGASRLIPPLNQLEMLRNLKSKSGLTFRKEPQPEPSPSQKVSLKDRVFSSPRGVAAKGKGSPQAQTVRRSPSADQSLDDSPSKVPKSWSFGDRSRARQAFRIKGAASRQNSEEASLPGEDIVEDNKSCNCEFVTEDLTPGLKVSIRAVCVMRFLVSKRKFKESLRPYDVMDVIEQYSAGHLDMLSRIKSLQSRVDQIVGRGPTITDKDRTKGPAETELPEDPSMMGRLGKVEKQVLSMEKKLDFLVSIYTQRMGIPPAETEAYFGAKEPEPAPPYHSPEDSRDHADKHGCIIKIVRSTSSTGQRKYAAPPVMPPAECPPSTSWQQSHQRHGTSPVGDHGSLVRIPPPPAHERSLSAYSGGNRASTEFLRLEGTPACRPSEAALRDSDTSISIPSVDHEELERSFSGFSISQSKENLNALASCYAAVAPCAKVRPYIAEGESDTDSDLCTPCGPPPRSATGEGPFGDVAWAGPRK
# KCNQ2 enhance baseline: further read-out of KCNQ2 enhance, marked with its call; B-score; compound at 10 µM; measured here: initial fluorescence intensity artifact check;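 brightness before thallium and not channel activity; 0 = typical well and far values either way flag optical interference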
# Active calls of the source: *.
SMILES,KCNQ2 enhance,KCNQ2 enhance baseline
C/C(=N\NC(=O)c1nnn(-c2nonc2N)c1COc1ccc(F)cc1)c1ccc(Cl)cc1,0.66,-0.09
COc1ccccc1N1CCN(C2CCN(S(=O)(=O)c3ccc(C)cc3)CC2)CC1,0.83,1.6
O=C(NCC1CCCO1)c1cc(C(=O)C2CCCCC2)c[nH]1 (stereo not given),0.37,-3.3
Cc1ccccc1Nc1nnc(SCC(=O)Nc2ccccc2[N+](=O)[O-])s1,0.31,0.65
COc1ccc(CC2(CO)CCN(C(C)Cc3ccc(Cl)cc3)CC2)cc1 (stereo not given),0.01,-0.14
CC1CCC(N2CCN(c3ncccn3)CC2)C1 (stereo not given),0.13,-0.44
CCCCn1c(S(=O)(=O)O)nc2ccccc21,0.78,-3
CCc1ccc(OCC(=O)Nc2ccncc2)cc1,1.8,1.2
Cc1cccc(OCCNC(=S)NC(=O)c2cncc(Br)c2)c1,0.59,3.1
O=C(Cn1cc2c(n1)CCCCC2)NC1CCN(Cc2ccccc2)CC1,0.54,0.85
COc1cc2c(cc1OC)C(=O)NCC(C)(C)O2,0.23,0.78
c1ccc(CCNc2nc(-c3cccnc3)cs2)cc1,2.5,-0.97
COc1ccc(N2CCN(S(=O)(=O)c3ccc4oc(=O)ccc4c3)CC2)cc1,0.94,-0.98
COc1ccccc1C1C(C(N)=O)=C(C)Nc2nc(-c3ccccc3Cl)nn21 (stereo not given),0.73,-1.2
CCN(CC)CCOC(=O)c1ccc(NC(=O)CNC(=O)c2ccccc2)cc1,0.49,0.6
COC(=O)c1ccc(N2NC(=O)/C(=C/c3ccc(-c4ccc(Cl)c(C(=O)O)c4)o3)C2=O)cc1,0.99,-0.06
CCCN1CCN(CC(=O)Nc2cc(OCC)ccc2OCC)CC1,1.6,-1.4
Cn1c(Cl)c(/C=N/OC(=O)C2CC2)c2ccccc21,1.3,1.6
O=C(Nc1nc2ccccc2s1)c1ccccc1[N+](=O)[O-],0.91,-0.08
CC(=O)N(CCc1ccccc1C)Cc1cc2cc(C)ccc2[nH]c1=O,0.19,-0.52
CCOc1ccc(NC(=O)c2ccc(NCC(=O)N3CCCCCC3)cc2)cc1,0.45,0.27
COc1ccc(CCNC(=O)CCCCn2c(=O)[nH]c3ccccc3c2=O)cc1OC,0.49,0.78
CCn1c(-c2ccccc2SC)n[nH]c1=S,1,1.2
C=C(C)C(=O)Nc1cccc(C2=NOC3(C2)C[C@H](C(N)=O)N(C(=O)c2ccccc2C(=O)c2ccccc2)C3)c1 (stereo not given in full),1.4,1.6
CCc1c(C)c2c(C)[nH]nc2oc1=O,1.8,0.57
CC(=O)c1ccc(N2CCN(c3ccnc4cc(Cl)ccc34)CC2)cc1,0.05,0.66
Cc1sc2ncnc(OCC(=O)c3ccc(S(=O)(=O)N4CCCC4)cc3)c2c1C,0.17,0.95
O=C(COC(=O)CSc1ccc2ccccc2c1Br)NC1CC1,1.8,-0.23
CCOc1ncccc1C(=O)OCC(=O)Nc1cccc(S(N)(=O)=O)c1,0.23,-2.1
COc1ccc(N(CC(=O)Nc2cccc3ccccc23)S(C)(=O)=O)cc1,0.73,-0.25
O=S(=O)(NCC(c1cccnc1)N1CCOCC1)c1ccccc1 (stereo not given),0.49,0.63
O=S(=O)(NC(=S)c1ccccc1)c1ccccc1,1.4,0.89
OC(C#CCCN1CCCCC1)(c1ccccc1)c1ccccc1,1.6,-0.19
NC(=O)CCC1NC(=S)N(Cc2ccccc2)C1=O (stereo not given),1.2,-0.27
COC(=O)c1ccc(N2CCC(C)CC2)c(N)c1,0.17,-1.6
COc1cc(C(=S)N2CCC(Cc3ccccc3)CC2)ccc1OCC(N)=O,0.35,-0.03
CC/C(=N\Nc1ccnc2cc(Cl)ccc12)c1ccc(O)cc1,0.88,0.53
CC1CN(c2ccc(S(=O)(=O)N3CCOCC3)cn2)CC(C)O1 (stereo not given),1.1,-0.39
COc1ccccc1C1(CC(=O)N2CCOCC2)CCOC(C(C)C)C1 (stereo not given),0.08,-1.8
CC(C)c1c(C(=O)N/N=C/c2ccco2)nnn1-c1nonc1N,0.71,-0.05
Cc1cc(C)n(-c2nc3c(c(=O)[nH]c(=O)n3C)n2CC(O)COc2ccccc2C)n1 (stereo not given),0.23,-0.32
Cc1nn(C)c(C)c1S(=O)(=O)NCc1cccs1,0.49,-0.14
COc1ccc2cc3cc(C(=O)NCC4CCCO4)oc3nc2c1 (stereo not given),2.9,-0.32
CCOc1cc(N2CCOCC2)c(OCC)cc1NC(=O)c1ccccc1C,0.52,0.2
COc1ccc(CNC(=O)C(=O)NCC2CCCN2S(=O)(=O)c2cccs2)cc1 (stereo not given),0.09,-0.05
CCOC(=O)c1c(C)[nH]c(C(=O)COC(=O)CCC2CCCC2)c1C,0.14,-1.4
O=[N+]([O-])c1ccc(NCc2ccccc2N2CCC(CO)CC2)nc1,0.74,-0.81
COc1ccc(OC)c(S(=O)(=O)Nc2c(NC3CCCCC3)c3ccccc3oc2=O)c1,0.01,0.22
CCC(Sc1nc2cc3c(cc2c(=O)n1Cc1ccco1)OCO3)C(=O)NCCOC (stereo not given),1.9,0.85
O=C(COC(=O)c1ccc([N+](=O)[O-])cc1)Nc1cccnc1Cl,0.85,0.72
CCS(=O)(=O)N1Cc2ccccc2CC1C(=O)N(C)CC(=O)Nc1ccc(F)c(F)c1F (stereo not given),1.1,-0.18
O=[N+]([O-])c1ccc(Sc2cccc3cccnc23)cc1,0.47,0.51
CCOc1ccc2[nH]c(=O)c(CN(CCc3ccccc3)C(=O)N3CCOCC3)cc2c1,0.92,-0.38
CCOC(=O)Oc1ccc2c(c1)C(C)=CC(C)(C)N2C(=O)OCC,2.1,-2.1
COc1cc(C2c3[nH]c4ccccc4c3C[C@@H]3C(=O)N(Cc4ccco4)CC(=O)N23)cc(OC)c1OC (stereo not given in full),1.5,-0.06
Cc1ccc(/C=N/NC(=O)CSc2nnc(-c3ccc(Cl)cc3)n2-c2ccccc2)o1,1.2,-0.8
Clc1cccc(Cl)c1/C=C/c1ccn[nH]1,0.92,0.44
NC(=O)c1ccc(Oc2ccc(Cl)cc2)c([N+](=O)[O-])c1,0.19,0.1
CC1CCCN(c2nc3nonc3nc2Nc2ccccc2F)C1 (stereo not given),0.76,-1.1
Cc1c(Cl)cccc1NC(=O)c1cccnc1,0.21,-0.71

# Some of these compounds in order of their number in KCNQ2 enhance baseline, low to high:
SMILES,KCNQ2 enhance,KCNQ2 enhance baseline
CCS(=O)(=O)N1Cc2ccccc2CC1C(=O)N(C)CC(=O)Nc1ccc(F)c(F)c1F (stereo not given),1.1,-0.18
NC(=O)c1ccc(Oc2ccc(Cl)cc2)c([N+](=O)[O-])c1,0.19,0.1
Clc1cccc(Cl)c1/C=C/c1ccn[nH]1,0.92,0.44
O=[N+]([O-])c1ccc(Sc2cccc3cccnc23)cc1,0.47,0.51
CCC(Sc1nc2cc3c(cc2c(=O)n1Cc1ccco1)OCO3)C(=O)NCCOC (stereo not given),1.9,0.85

# Additional entries.
SMILES,KCNQ2 enhance,KCNQ2 enhance baseline
CC1CCN(CCNC(=O)CN(C)S(=O)(=O)c2cccc3nsnc23)CC1,1.6,0.49
COc1ccc2[nH]c(=O)c(CN(Cc3cccs3)C(=S)Nc3ccccc3)cc2c1,0.4,-0.16
COc1ccc(NC(=O)C2CC(=O)N(C)C(=Nc3ccc4c(c3)OCO4)S2)cc1 (stereo not given),1.3,0.01
O=C(NC(=S)NCC1CCCO1)c1cccc([N+](=O)[O-])c1 (stereo not given),0.84,-1.2
Cc1cc(S(=O)(=O)N2CCOCC2)ccc1OCC(=O)Nc1cccc(F)c1,1.2,-0.34
Cc1[nH]nc(-c2ccc(O)cc2O)c1-c1nc2ccccc2s1,1.4,-0.98
N#Cc1cc([N+](=O)[O-])ccc1N1CCN(c2ccccc2O)CC1,0.03,-0.73
COc1cc(/C=N/NC(=O)CCN2CCN(C)CC2)cc2c1OCO2,0.46,0.88
CCOC(=O)C1(CCOc2ccccc2)CCN(CC=C(C)C)CC1,1.6,-2.5
CCOC(=O)C1CCN(c2nc(N)c3c(N)nc(SCC(=O)O)cc3c2C#N)CC1,0.76,-0.2
N#Cc1ccc[n+](CC(=O)c2ccc(NC(=O)c3ccccc3)cc2)c1,0.91,0.24
CC(=O)C1=C(C)NC2=C(C(=O)CC(C)(C)C2)C1C (stereo not given),0.37,-0.28
CCOC(=O)c1cnc2c(OC)cccc2c1NCc1cccnc1,0.46,-0.94
Clc1ccc(N2CCN(c3cnc4ccccc4n3)CC2)cc1,0.63,-0.85
O=C(NN1C(=O)NC2(CCCCC2)C1=O)c1ccc(-c2ccc([N+](=O)[O-])cc2)o1,0.87,-0.87
C=CCNC(=S)NNC(=O)COc1c(Cl)cc(Cl)cc1Cl,2,1.7
Cc1ccc(C(NC(=O)NC(C)c2ccccc2)C(Cl)(Cl)Cl)cc1F (stereo not given),17*,1.3*
CCOC(=O)N1CCN(C(=O)Nc2ccc3nccnc3c2)CC1,0.66,-1.1
O=C(OCc1nnc(-c2ccccc2)o1)c1cccc(-n2cnnn2)c1,0.06,-0.21
CCOC(=O)/C=c1\sc2n(c1=O)CCN=2,0.91,0.11
CC(=O)Nc1ccc(NC(=O)CSC2=NCCS2)cc1,0.02,-0.77
Cc1cc2n(n1)SC(Nc1cccc3ccccc13)N2 (stereo not given),1.9,-1.2
O=C1CCCC/C1=C\Nc1ccc(Cl)cn1,1.4,-2.4
COCCNC(=O)/C(C#N)=C/c1cccc(/C=C(\C#N)C(=O)NCCOC)c1,9.3*,-0.79*
Cc1ccccc1C(=O)Nc1ccc2c(c1)C(=O)NC2=O,0.13,0.18
Cc1ccc2cc(NC(=O)CC(CC(=O)O)c3ccccc3)ccc2n1 (stereo not given),0.7,-0.04
COC(=O)COc1cccc2c(=O)n(CC(=O)N3CCC(C)CC3)ccc12,1.9,-0.49
Cc1cc(-c2nnc(SCC(=O)Nc3ccc(F)cc3F)n2N)n[nH]1,0.46,0.01
CC(=O)Nc1ccc(OCC(O)CN2C(C)CCCC2C)cc1 (stereo not given),0.15,0.42
O=[N+]([O-])c1ccc(/C=N/n2c(COc3ccccc3)n[nH]c2=S)cc1,0.8,-0.46
CC1=CSC2=NS(=O)(=O)CCN12,1.7,-0.27
CC(C)C(=O)NNC(=O)c1csc(CS(=O)(=O)c2ccc(Cl)cc2)n1,0.78,-0.01
Cc1[nH]ccc(=O)c1Cc1c(Cl)cccc1Cl,0.02,0.12
CC(NC(=O)C1CCN(c2nnc(N3CCCC3=O)s2)CC1)c1ccccc1 (stereo not given),1.9,0.32
COc1ccc(C(=O)NC2CCN(C(=S)NCCc3ccccc3)CC2)cc1,0.36,1.4
Cc1cnc(NC(=O)CSc2nnc(CNc3ccc(F)cc3)n2CC2CCCO2)s1 (stereo not given),1.4,0.13
CCOc1cc(N2CCOCC2)c(OCC)cc1NC(=O)CN1C(=O)NC(CC(C)C)C1=O (stereo not given),1.4,1.9
COc1ccc(C(=O)Cn2nnc(-c3ccccc3F)n2)cc1,1.5,-1.6
CN(C)CCNC(=O)CN1C(=O)CSc2ccc(S(=O)(=O)N3CCCCC3)cc21,0.09,0.1
Cc1ccc(C)c(OCCCN2CCCC2)c1,0.01,2
Cc1csc(NC(=O)C2=NN(c3ccccc3)C(=O)CC2)n1,0.04,-0.45
COc1cccc2[nH]c3c(N4CCC5(CC4)OCCO5)ncnc3c12,1.1,-0.48
O=C(O)/C=C/C(=O)Nc1ccc(C2(c3ccc(NC(=O)/C=C/C(=O)O)cc3)c3ccccc3-c3ccccc32)cc1,0.56,-0.56
Cc1ccc(N2CCC(N3CCN(C)C(CCO)C3)CC2)cc1 (stereo not given),1,-0.01
COc1cc(CC(=O)OCC(=O)Nc2ccc(S(=O)(=O)N3CCCC3)cc2)cc(OC)c1OC,0.32,0.01
CCOC(=O)c1ccc(OC(=O)CCCCCN=C(N)N)cc1,0.94,-1.2
CC(C)Cc1nnc(NC(=O)CCC(=O)NCCc2ccccc2)s1,0.05,-0.83
Cc1cn2c(=O)c(C(=O)N3CCN(c4ccccc4Cl)CC3)cnc2s1,0.59,0.52
COc1ccccc1CNCc1cc(OC)c(OC)c(OC)c1,0.75,-0.9
Cc1noc(NS(=O)(=O)c2ccc(N/C=C/C(=O)c3ccncc3)cc2)c1C,0.02,2.8
CC(C)(C)NC(=O)c1ccc(NC(=O)CSc2ccccc2)cc1,0.5,0.72
Cc1csc(NC(=O)c2cc(=O)[nH]c3ccccc23)n1,0.2,-2
CNS(=O)(=O)c1cccc(C(=O)OCC(=O)Nc2ccc(Cl)cc2F)c1,0.24,-0.04
CC(C)(C)NS(=O)(=O)c1ccc(NC(=O)Cc2ccccc2[N+](=O)[O-])cc1,0.23,-1.1
CC1=NN(C(=O)c2ccccc2Br)C(O)(c2cccnc2)C1 (stereo not given),0.01,1.4

# Retrieved by compound from the list above, seven records:
SMILES,KCNQ2 enhance,KCNQ2 enhance baseline
Cc1csc(NC(=O)c2cc(=O)[nH]c3ccccc23)n1,0.2,-2
CNS(=O)(=O)c1cccc(C(=O)OCC(=O)Nc2ccc(Cl)cc2F)c1,0.24,-0.04
CC(C)(C)NC(=O)c1ccc(NC(=O)CSc2ccccc2)cc1,0.5,0.72
Cc1noc(NS(=O)(=O)c2ccc(N/C=C/C(=O)c3ccncc3)cc2)c1C,0.02,2.8
CC1=NN(C(=O)c2ccccc2Br)C(O)(c2cccnc2)C1 (stereo not given),0.01,1.4
COc1ccccc1CNCc1cc(OC)c(OC)c(OC)c1,0.75,-0.9
CC(C)(C)NS(=O)(=O)c1ccc(NC(=O)Cc2ccccc2[N+](=O)[O-])cc1,0.23,-1.1

# Source: PubChem BioAssay (Johns Hopkins Ion Channel Center)

# Some of the compounds tested. The share of hits here may be higher or lower than overall.
